Source: PubChem (ICCB-Longwood Screening Facility, Harvard Medical School)
PV pol inh – poliovirus RdRp elongation inhibitors, primary screen, biochemical, fluorescence polarization, total intensity; AID 588519, 2011; poliovirus polymerase elongation; stronger effect = lower value; 0.66% of 150,000 active; % elongation, % (compound at 16.7 µg/mL); Genome polyprotein (Poliovirus type 1 (strain Mahoney)), P03300; in the data active = % elongation below about 90%; note: some results filed as inactive read as strong as hits
Target sequence (P03300 1749-2209 limits assumed): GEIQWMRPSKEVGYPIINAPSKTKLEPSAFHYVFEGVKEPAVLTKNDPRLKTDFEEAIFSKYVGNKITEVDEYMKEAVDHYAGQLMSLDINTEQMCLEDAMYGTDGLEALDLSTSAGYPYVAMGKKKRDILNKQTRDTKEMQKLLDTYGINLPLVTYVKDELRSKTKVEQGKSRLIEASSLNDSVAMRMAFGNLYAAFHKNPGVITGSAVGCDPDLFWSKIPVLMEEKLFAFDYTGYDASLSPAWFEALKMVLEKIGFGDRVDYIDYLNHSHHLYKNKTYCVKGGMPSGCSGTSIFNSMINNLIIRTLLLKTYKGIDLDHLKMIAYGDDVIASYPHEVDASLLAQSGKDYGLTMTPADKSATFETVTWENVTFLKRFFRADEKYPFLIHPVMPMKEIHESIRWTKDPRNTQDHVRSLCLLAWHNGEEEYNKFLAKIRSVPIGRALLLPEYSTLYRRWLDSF
MbtI inh – MbtI salicylate synthase inhibitors, primary screen, biochemical, fluorescence intensity; P9WFX0; purified MbtI enzyme, fluorescence intensity read-out; inhibition, %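 (about 17 µg/mL by stock and volumes)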; 0.89% of 100,000 active; AID 493033, 2011;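 active = above 50% in both replicates, above 80% if mildly self-fluorescent; inactive = the rest, strongly fluorescent compounds included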;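 note: 0% = mean of negative and 100% = mean of positive controls; one replicate is shown; some compounds called inactive have numbers as strong as hits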
MenB inh – M. tuberculosis MenB inhibitors, primary screen, biochemical, absorbance. 1,4-dihydroxy-2-naphthoyl-CoA synthase (Mycobacterium tuberculosis (strain ATCC 25618 / …. inhibition, %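 (about 12 µg/mL by stock and volumes)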. 0.43% of 100,000 active. MenB enzyme assay, absorbance read-out; some hits fall short of the stated cut. AID 540299, 2011;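 active = mean of two replicates above 30%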;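 note: 0% = no compound and 100% = wells with inactive enzyme; the first replicate is given; strong numbers were not always called active; inactives centre near -10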
Target sequence (P9WNP5 whole entry, looked up): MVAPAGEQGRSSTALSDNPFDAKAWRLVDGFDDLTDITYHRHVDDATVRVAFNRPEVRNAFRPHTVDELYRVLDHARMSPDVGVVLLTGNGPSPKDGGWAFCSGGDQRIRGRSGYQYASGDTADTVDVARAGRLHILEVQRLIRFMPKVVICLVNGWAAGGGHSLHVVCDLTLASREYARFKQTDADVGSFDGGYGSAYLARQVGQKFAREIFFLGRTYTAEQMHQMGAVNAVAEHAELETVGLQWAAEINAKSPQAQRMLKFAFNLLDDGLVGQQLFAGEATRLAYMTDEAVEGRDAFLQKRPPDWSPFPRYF
PV pol inh intensity – further read-out of PV pol inh, marked with its call; % elongation; measured here: total intensity read-out; formula for this scale not given here;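 total fluorescence in place of polarization; lower means less elongation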
* hit, by the source's call; / = not tested or not shown.

Each structure is followed by: PV pol inh | PV pol inh intensity | MbtI inh | MenB inh
COCCN(Cc1nc2ccccc2c(=O)[nH]1)C(=O)Cn1cnc2sccc2c1=O
 : 116 | 110 | -6 | -14
CCN(CC)C(=O)CSc1nnc2c(n1)[nH]c1ccc(C(C)C)cc12
 : 101 | 101 | 5 | -52
COC(=O)C(N)c1ccccc1 (stereo not given)
 : 102 | 102 | 2 | /
CC(NC(=O)c1ccccc1)c1ccccc1 (stereo not given)
 : 102 | 107 | -11 | /
CCc1cc2c(COC(=O)c3cccc(NS(C)(=O)=O)c3)cc(=O)oc2cc1O
 : 98 | 94 | 11 | -26
CCCc1oc2ccc(NS(=O)(=O)c3ccccc3)cc2c1C(=O)OCC
 : 101 | 100 | 16 | 2
CCc1ccc2nc(SCC(=O)N(CC)CC)c(C#N)cc2c1
 : 101 | 105 | 46 | -18
N#C/C(=C\c1ccc(OC(=O)c2ccco2)cc1)C(=O)Nc1ccccc1Br
 : 101 | 104 | -24 | -9
O=C(CN1C(=O)CSC1=O)Nc1ccccc1N1CCOCC1
 : 102 | 104 | -5 | -1
CC(C)OC(=O)Cn1nnc(-c2ccccc2)n1
 : 105 | 101 | -10 | -16
CCN(C(=O)c1ccc(Br)cc1)c1ccccc1
 : 101 | 99 | -12 | 5
CCn1c(-c2ccccc2)cnc1SCC(=O)c1sc2c(c1C#N)CCCC2
 : 104 | 101 | -7 | -23
CC(C)(C)c1nnc(Nc2ccc(Cl)c(C(F)(F)F)c2)[nH]c1=O
 : 101 | 101 | -5 | -1
O=C(NC(C(=O)O)C12CC3CC(CC(C3)C1)C2)C1CCCCC1 (stereo not given)
 : 101 | 100 | -11 | 1
CNC(=O)Nc1cc(C(C)(C)C)no1
 : 101 | 107 | -10 | -8

3 compounds already listed, arranged by molar mass, high to low.
Each structure is followed by: PV pol inh | PV pol inh intensity | MbtI inh | MenB inh
N#C/C(=C\c1ccc(OC(=O)c2ccco2)cc1)C(=O)Nc1ccccc1Br
 : 101 | 104 | -24 | -9
COCCN(Cc1nc2ccccc2c(=O)[nH]1)C(=O)Cn1cnc2sccc2c1=O
 : 116 | 110 | -6 | -14
CCc1cc2c(COC(=O)c3cccc(NS(C)(=O)=O)c3)cc(=O)oc2cc1O
 : 98 | 94 | 11 | -26

Carrying on:
Each structure is followed by: PV pol inh | PV pol inh intensity | MbtI inh | MenB inh
NC(=O)C12CCCC(Br)(CCC1)C2
 : 101 | 106 | -8 | /
CN1C(=O)C(=CN2CCc3ccccc32)C(=O)N(C)C1=O
 : 100 | 98 | 6 | 15
COc1ccc(C)c2sc(NNC(=O)C3=COCCO3)nc12
 : 100 | 104 | 26 | -59
COc1ccc(CNC(=S)N(Cc2nnc(-c3ccccc3Cl)o2)C2CC2)cc1
 : 102 | 103 | 12 | -30
CC(=O)Nc1ccccc1OCC(=O)N(C(C)C)C(C)C
 : 98 | 98 | -6 | /
Cc1ccc(NC(=S)NCC2CCCO2)cc1 (stereo not given)
 : 102 | 102 | 0 | -16
Cc1cc(=O)oc2c3c(ccc12)O/C(=C/C=C/c1ccccc1)C3=O
 : 98 | 105 | 2 | 2
CCc1ccc(-c2nn(-c3ccccc3)c(=S)c3ccccc23)cc1
 : 105 | 106 | / | -3
O=C1/C(=N/NC(=O)C2COc3ccccc3O2)c2cccc3cccc1c23 (stereo not given)
 : 100 | 93 | 17 | -50
C=CCn1c(SCc2nc3ccccc3[nH]2)nnc1-c1ccco1
 : 109 | 106 | / | -4
COC(=O)c1ccc(COC(=O)COc2ccc(C#N)cc2)o1
 : 99 | 94 | -4 | -16
CC(C)CCNC(=O)c1cn(C)c2ccc(S(=O)(=O)N3CCC(C)CC3)cc2c1=O
 : 102 | 107 | 0 | -7
O=C(Cn1c(N2CCN(c3ccc(F)cc3)CC2)nc2ccccc21)c1ccccc1
 : 99 | 104 | 0 | -24
CN1C(=O)C(O)N(c2ccccc2)C1=O (stereo not given)
 : 101 | 107 | -1 | -58
Fc1ccc(NC(=S)Nc2cc(C(F)(F)F)ccc2N2CCCC2)cc1Cl
 : 107 | 112 | -15 | -44
O=C1CN(c2ccc(OC(F)(F)F)cc2)C(=O)CN1CC1CC1
 : 100 | 104 | 2 | -1
C=CCN(CC=C)C(=O)CSc1nnnn1-c1ccc(C)cc1C
 : 100 | 108 | -2 | -2
COC(=O)c1cn(CCC#N)nc1-c1ccc2ccccc2c1
 : 100 | 100 | 0 | -3
COc1ccc(OCCN(C)C(=O)c2cccc3cccnc23)cc1
 : 99 | 101 | 6 | -9
O=C(NCc1ccc(S(=O)(=O)NCCN2CCCC2)s1)c1ccc(Cl)cc1
 : 106 | 110 | -6 | -5
Cc1onc(-c2c(Cl)cccc2Cl)c1C(O)c1ccc(F)cc1 (stereo not given)
 : 99 | 105 | -9 | 9
CC(Oc1ccccc1F)C(=O)N/N=C/c1cnn(-c2ccccc2)n1 (stereo not given)
 : 99 | 103 | -11 | -16
O=C(CSc1ccc2nnc(-c3ccccn3)n2n1)c1ccccc1
 : 100 | 98 | -2 | 0
Cc1c(N)c(C)c(N)c(C)c1N
 : 98 | 105 | 16 | -44
NC(=O)COC(=O)CCc1nc2ccccc2s1
 : 105 | 108 | -10 | -2
Cc1cc(C(=O)CSc2nnc(NC3CC3)s2)c(C)s1
 : 103 | 107 | 3 | -24
C=CCN1C(=O)NC(=O)/C(=C/c2ccc(OCC(=O)O)c(OCC)c2)C1=O
 : 100 | 102 | -8 | -24
C=CCn1c(COc2ccc(CC)cc2)nnc1SCC(=O)c1cc(C)n(CCOC)c1C
 : 101 | 93 | 1 | -25
O=C(NCc1cccs1)C1=CC=CN2CCS(=O)(=O)N=C12
 : 104 | 110 | 101 | -27
NC(=O)C1CCCN(S(=O)(=O)c2ccccc2)C1 (stereo not given)
 : 100 | 103 | -9 | -1
COc1ccc(CN(C)c2nc(-c3cccnc3)nc3ccccc23)cc1OC
 : / | / | -1 | -24
CCC(N)Cc1c[nH]c2ccccc12 (stereo not given)
 : 102 | 110 | / | -16
O=C(Nc1ccc(-n2cnnn2)cc1)c1ccc(S(=O)(=O)N2CCCc3ccccc32)cc1
 : 102 | 104 | -21 | -32
O=c1[nH]cnc2sc3c(c12)CCC3
 : 104 | 104 | 0 | -17
Oc1c(I)cc(I)c2cccnc12
 : 100 | 103 | -24 | -2
O=S(=O)(NC1=NCCS1)c1ccc(N=NN2CCCCC2)cc1
 : 102 | 102 | -15 | -12
CC[C@@]1(C)N[C@H](C(=O)O)CS1
 : 109 | 110 | / | -15
Cc1cccc(N2CCC(N=CN3CCOCC3)=N2)c1
 : 106 | 102 | / | 3
CCc1ccc(-c2cc(C)no2)cc1S(=O)(=O)NCc1cccs1
 : 100 | 103 | -7 | -1
Cc1ccc(-n2ncc3c(SCC(=O)NC(C)C)ncnc32)c(C)c1
 : 101 | 101 | 9 | 10
c1csc(Cc2nnc(SCc3cn4ccsc4n3)n2C2CCCCC2)c1
 : 103 | 101 | -4 | -19
CC(=Nc1ccccc1C(F)(F)F)c1cccs1
 : 109 | 110 | -8 | 9
CC(C)NS(=O)(=O)c1ccc(OCC(=O)N2CCC(Cc3ccccc3)CC2)cc1
 : 98 | 101 | -62 | -25
CCOC(=O)CN=Cc1c(O)[nH]c2ccccc12
 : 101 | 103 | 3 | -25
CN(C)c1cc(O)c(C(=S)Nc2ccccc2)c(N(C)C)c1
 : 107 | 116 | / | -77

Structures from the list above that contain a tert-butyl group (two):
Each structure is followed by: PV pol inh | PV pol inh intensity | MbtI inh | MenB inh
CC(C)(C)c1nnc(Nc2ccc(Cl)c(C(F)(F)F)c2)[nH]c1=O
 : 101 | 101 | -5 | -1
CNC(=O)Nc1cc(C(C)(C)C)no1
 : 101 | 107 | -10 | -8

(next part)
Each structure is followed by: PV pol inh | PV pol inh intensity | MbtI inh | MenB inh
CCOc1ccc(NC(NC(=O)c2cccs2)C(=O)c2ccccc2)cc1 (stereo not given)
 : 103 | 98 | -4 | -37
CC1CN(C2=NC(=O)/C(=C\c3ccccc3)S2)CC(C)O1 (stereo not given)
 : 98 | 102 | 10 | -28
COCCn1c(=NC(=O)CSC(C)=O)sc2cc(OC)ccc21
 : 101 | 104 | 13 | -20
O=c1[nH][nH]c(=O)c2c(NS(=O)(=O)c3ccccc3)cccc12
 : 102 | 106 | 0 | -4
COc1ccc(-n2ccn(CC(=O)Nc3ccccc3)c(=O)c2=O)cc1
 : 102 | 103 | 34 | 1
Cc1cc(C)n2cc(CNc3ccc(N4CCCC4=O)cc3)nc2n1
 : 104 | 103 | 2 | -1
CCN(CC)c1ccc(/C=C2\NC(=S)NC2=O)cc1
 : 154 | 190 | 17 | -57
CC1(C)CC(=O)C2=C(C1)OC(N)=C(C#N)C21C(=O)c2ccccc2C1=O
 : 104 | 97 | 29 | 12
Cc1ccc(C2CC(=O)C=C(Nc3n[nH]c(C)c3-c3ccccc3)C2)cc1 (stereo not given)
 : 100 | 99 | -10 | -17
CN(C)C(=O)c1cn(-c2ccccc2)nc1-c1ccc(OC(F)F)cc1
 : 104 | 107 | -21 | -17
N#Cc1cccc(NC(=O)COC(=O)CCC2CCCC2)c1
 : 102 | 104 | -3 | /
COC(=O)c1ccccc1NC(=O)c1oc2ccc(F)cc2c1C
 : 101 | 105 | -2 | -26
CC1CCCC(C)N1C(=O)COC(=O)CCC1CCCC1 (stereo not given)
 : 102 | 102 | -5 | /
COc1ccc(NC(=O)CN(C)CC(=O)c2c(C)[nH]c3ccccc23)cc1
 : 104 | 122 | 4 | -2
O=C(Nc1cccnc1)c1c(O)c2c(n(C3CC3)c1=O)CCCC2
 : 102 | 103 | -5 | -37

One compound at a time, as listed above. Values in the order: PV pol inh | PV pol inh intensity | MbtI inh | MenB inh
Listed for CC1CCCC(C)N1C(=O)COC(=O)CCC1CCCC1 (stereo not given) → 102 | 102 | -5 | /
Listed for CN(C)C(=O)c1cn(-c2ccccc2)nc1-c1ccc(OC(F)F)cc1 → 104 | 107 | -21 | -17
Listed for O=C(Nc1cccnc1)c1c(O)c2c(n(C3CC3)c1=O)CCCC2 → 102 | 103 | -5 | -37
Listed for CCN(CC)c1ccc(/C=C2\NC(=S)NC2=O)cc1 → 154 | 190 | 17 | -57
Listed for COc1ccc(-n2ccn(CC(=O)Nc3ccccc3)c(=O)c2=O)cc1 → 102 | 103 | 34 | 1

New compounds follow
Each structure is followed by: PV pol inh | PV pol inh intensity | MbtI inh | MenB inh
CC[C@@]1([C@@H]2O[C@@H]([C@H]3O[C@@](O)(CO)[C@H](C)C[C@@H]3C)C[C@@H]2C)CC[C@H]([C@]2(C)CC[C@]3(C[C@H](O)[C@@H](C)[C@@H]([C@@H](C)[C@@H](OC)C(C)C(=O)O)O3)O2)O1 (stereo not given in full)
 : 98 | 102 | -7 | 2
c1ccc(-n2c(SCc3cc(-c4cccs4)on3)nnc2C2CC2)cc1
 : 105 | 101 | 8 | -32
O=C1c2ccccc2C(=O)N1CC(F)(F)F
 : 105 | 110 | / | -5
CC(Oc1ccc2c3c(c(=O)oc2c1)CCC3)C(=O)c1ccccc1 (stereo not given)
 : 102 | 101 | / | -18
Cc1cc(C(=O)CSc2n[nH]c(N)n2)c(C)n1Cc1ccc2c(c1)OCO2
 : 106 | 98 | -2 | -36
CCOC(=O)c1cnc2c(OC)cccc2c1NC1CCCCC1
 : 101 | 103 | -72 | -25
CNC(=S)N/N=C(\C)Cc1ccc(OC)cc1
 : 102 | 102 | -3 | -35
Nc1cc2c(cc1Cl)OCO2
 : 102 | 101 | 16 | -65
Fc1cc(F)c(NC(=S)N2CCOCC2)c(F)c1
 : 108 | 112 | -15 | -11
COc1ccccc1CCNS(=O)(=O)c1ccc(C(=O)O)n1C
 : 105 | 115 | -12 | 2
Cc1ccc(/C=C(\C#N)C(=O)NC2CCCCC2C)o1 (stereo not given)
 : 116 | 112 | 7 | -31
Cc1ccc(C(=O)OCC(=O)N2CCC(Cc3ccccc3)CC2)s1
 : 104 | 105 | -1 | /
O=C(COc1ccccc1)c1ccc(O)cc1O
 : 105 | 109 | / | -2
N#C/C(=C\c1ccc(C(F)(F)F)cc1)c1c[nH]c2ccccc12
 : 110 | 108 | -32 | -34
NNC(=O)CNc1c(-c2ccsc2)nc2ccccn12
 : 103 | 102 | 11 | -28
O=C1CCOc2ccc3ccccc3c21
 : 101 | 96 | 27 | 15
CC1CCCCN1C(=O)c1ccc2ccccc2n1 (stereo not given)
 : 103 | 104 | -4 | -16
